A1 inh – inhibitors of the anti-apoptotic protein A1, read as caspase activation. MEF A1-2A-BIM cells, Caspase-Glo 3/7 luminescence, 3 h; percent of clofoctol response, vehicle zero. caspase activation, % (concentration not given with the values). 330,000 tested, 0.066% active;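 active = over half of replicate activation scores above 10%, or exactly half above 10 with the replicate mean above 10; inconclusive = replicate mean below 10 yet half the replicates above 10; inactive = over half of replicates below 10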;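 note: wells of about 30 µL received 50 nL stock; many hits fall short of the cut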
Ecoli rRNA inh – selective bacterial rRNA inhibition in E. coli; 350,000 tested, 1.6% active; AID 720706; GFP signal change (wild-type ribosome), % (no concentration beside the values); E. coli WT GFP vs humanized-ribosome RFP mutants, fluorescence, 24 h; stronger effect = lower value; DMSO median 0, no signal -100;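 active = significant combined selectivity score with lowered wild-type GFP, culture density cut under 30%, mutant RFP and density less affected; inactive = any of these conditions unmet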; note: one replicate is shown; some compounds called inactive have numbers as strong as hits
Beta apoptosis – beta cell apoptosis inhibition; AID 435005; protection from apoptosis, % (test concentration not listed); 300,000 tested, 0.8% active; INS-1E cytokine-induced death, ATP luminescence, 48 h; percent of positive-control rescue, neutral wells zero;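 active = all replicates at 75% or more, or half of them and the mean; inconclusive = half reach 75% but not the mean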;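 note: 0% = cytokine-treated negative control wells and 100% = positive control rescue; higher means more ATP so stronger rescue from cytokine killing; wells of about 40 µL received 100 nL stock; the first replicate is given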
ALR inh – blocks human ALR sulfhydryl oxidase activity | inhibition, % (concentration not given with the values) | AID 485317 | P55789 | 290,000 tested, 3.8% active | purified ALR, DTT oxidation, H2O2 HRP-luminol luminescence;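 active = mean and each replicate at 75% or more; inconclusive = only one of the two met; inactive = neither met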;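 note: stock transfer was 7.5 nL into about 7.5 µL; 0% = neutral wells and 100% = wells with inactivated enzyme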
Target sequence (P55789 whole entry, looked up): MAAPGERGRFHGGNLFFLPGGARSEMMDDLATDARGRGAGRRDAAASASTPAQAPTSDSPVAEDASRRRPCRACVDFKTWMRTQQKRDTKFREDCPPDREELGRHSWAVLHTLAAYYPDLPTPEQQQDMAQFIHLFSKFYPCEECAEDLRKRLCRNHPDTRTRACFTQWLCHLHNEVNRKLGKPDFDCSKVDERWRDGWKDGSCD
T cruzi repl – blocks replication of Trypanosoma cruzi; T. cruzi beta-gal in NIH3T3, luminescence, 90 h; inhibition, % (concentration not given with the values); 300,000 tested, 1.4% active; AID 1885;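 active = mean inhibition across valid replicates above about 55%, limit read from the data; inconclusive = mean below that limit but half or more replicates reach it; inactive = mean below it, under half of replicates reach it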;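 note: signal also drops with host cell toxicity which is not excluded here; 0% = plate median of DMSO wells and 100% = zero luminescence signal; higher percent means less beta-gal luminescence so fewer parasites; stock transfer was 50 nL into about 50 µL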
LANA-H2B inh – blocks KSHV LANA binding to histone H2A/H2B; 320,000 tested, 0.6% active; inhibition, % (concentration not given with the values); cell-free LANA-H2A/H2B peptide, fluorescence polarization; Q9QR71; in the data active = inhibition mostly above about 10%, no sharp cut-off; inactive = mostly below about 6.7%;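 note: stock transfer was 7.5 nL into about 10 µL; 0% = median of vehicle wells and 100% = median of positive control wells; one replicate is shown; the record names a cut of 25% in any replicate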
Calb FLC – affects C. albicans growth with fluconazole | C. albicans CaCi-2 (fluconazole-resistant clinical isolate) + fluconazole, Alamar Blue growth, 48 h | 300,000 tested, 0.57% active | growth inhibition, % (test concentration not listed);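 active = most replicates above 75%; inconclusive = exactly half above 75%; inactive = most below 75%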;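 note: all wells also contain fluconazole at 8 µg/ml as a sub-toxic cotreatment; 0% = median of DMSO wells and 100% = median of geldanamycin control wells; wells of about 8 µL received 7.5 nL stock; the first replicate is given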
B2AR ag – human beta-2 adrenergic receptor agonism by FAP; response, % (concentration not given with the values); 340,000 tested, 0.43% active; Am2.2-beta2AR cells, FAP receptor internalization, flow cytometry; reference of the scale not given here;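 active = response above a set limit, near 3 SD of response in nonfluorescent compounds, cut at about 42% in these data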;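 note: stock transfer was 100 nL into about 11 µL; a reference agonist was the positive control; negative values mostly stem from fluorescent compounds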
Target sequence (P07550 whole entry, looked up): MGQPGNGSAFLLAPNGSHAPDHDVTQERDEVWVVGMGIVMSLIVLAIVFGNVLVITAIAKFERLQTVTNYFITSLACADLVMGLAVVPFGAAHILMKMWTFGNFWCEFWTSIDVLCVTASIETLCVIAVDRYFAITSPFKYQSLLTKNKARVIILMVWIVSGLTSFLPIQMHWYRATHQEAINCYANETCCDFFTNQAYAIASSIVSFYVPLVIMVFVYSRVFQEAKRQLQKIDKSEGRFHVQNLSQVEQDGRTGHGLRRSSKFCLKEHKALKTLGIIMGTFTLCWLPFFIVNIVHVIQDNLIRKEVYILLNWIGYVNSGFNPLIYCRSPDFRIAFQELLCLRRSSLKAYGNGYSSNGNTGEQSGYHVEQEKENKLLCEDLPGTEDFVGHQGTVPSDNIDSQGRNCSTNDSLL
Ecoli rRNA inh OD600 – also measured in Ecoli rRNA inh; calls as there; OD600 change, %; measured here: OD600 growth;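 optical density of the mix in the first replicate; 0 = DMSO median and -100 = no signal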
Ecoli rRNA inh RFP – second read-out of Ecoli rRNA inh, no call of its own (marks repeat the call); RFP signal change, %; measured here: RFP humanized mutant strains;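 first replicate; 0 = DMSO median and -100 = no signal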
The depositor's hits bear a star; ? = inconclusive; · = not tested or not shown. The list is partial (hit frequency here may not be typical).

molecule,Ecoli rRNA inh,T cruzi repl,Ecoli rRNA inh RFP,LANA-H2B inh,A1 inh,ALR inh,Ecoli rRNA inh OD600,B2AR ag,Beta apoptosis,Calb FLC
CCC(C)NC(=O)c1ccc(NC(=O)CC2SC(N3CCCC3)=NC2=O)cc1 (configuration not stated),17,·,0.0,4.2,-0.2,5,19,3,-3,·
Cc1c(Cl)cccc1NC(=O)C1CC2CCC1C2 (configuration not stated),5,-3,-2.3,3.0,0.3,-1,3,-9,0,-9
Cc1cc(C2=NNC(=Nc3ccc(S(=O)(=O)N4CCOCC4)cc3)SC2)c(C)n1CC1CCCO1 (configuration not stated),11,0,6.6,-2.4,-0.4,-10,25,-1,-1,-1
Cc1cc(C)cc(OCC(=O)NN2Cc3ccccc3C2=N)c1,·,3,·,1.1,0.2,·,·,6,-5,-14
CSc1nc(C)c(CCO)c(=O)[nH]1,6,-9,-0.8,-4.7,1.2,-5,6,-3,0,-2
CC1CCC(NC(=O)CC2Oc3ccccc3NC2=O)CC1 (configuration not stated),5,-21,-0.1,1.0,0.2,43,9,12,·,0
CCCSc1nc(NCc2ccco2)c2c3c(sc2n1)COC(C)(C)C3,·,29,·,2.3,-0.8,-6,·,11,9,-6
CC(C)c1ccc(NC(=O)C2CCC(CNC(=O)[C@@H]3Cc4ccccc4CN3)CC2)cc1 (some centres not stated),-2,5,3.1,1.8,-0.5,6,4,-4,15,-11
COc1cccc(NS(=O)(=O)c2ccc(C)c(C(=O)N3CCCCC3)c2)c1,1,5,1.1,3.4,0.4,-4,-9,17,-3,-1
CC(C)(C)c1ccc(OCC(=O)Nc2ccncc2)cc1,3,-3,0.1,-5.2,-0.8,0,0,0,-3,11
COc1ccc(Br)c(C(=O)NCCC(C)C)c1,·,-4,·,-0.2,-0.3,-17,·,-2,8,-7
CCOC(=O)N1CCN(C(=O)c2cc3c(-c4ccc(Cl)cc4)nn(C)c3s2)CC1,-23*,11,-6.0*,0.9,0.1,72,-11*,-8,8,-1
CC(=O)c1cccc(NS(=O)(=O)c2ccc3c(c2)N(C(C)=O)CCO3)c1,8,1,3.9,-1.0,1.2,-2,5,5,0,2
CCCn1c(SCC(=O)N2CCCc3ccccc32)nc2c1c(=O)n(C)c(=O)n2C,·,·,·,-2.9,-0.8,-19,·,2,6,·
CC(=O)c1ccc(NC(=O)c2ccc3snnc3c2)cc1,3,-5,-1.5,-2.0,2.1,-8,9,0,1,1
COC(=O)C1=CN(Cc2cccs2)C=C(C(=O)OC)C1c1cccc(O)c1,-16,-1,-5.9,-2.1,-0.2,4,-15,-1,2,?
O=c1[nH][nH]c(=O)n1-c1ccccc1,7,-18,-0.2,3.3,-0.3,29,6,-5,2,2
COc1ccc(-c2csc(NC(C)c3nc4cc(Cl)c(N5CCCCC5)cc4n3CCCO)n2)cc1 (configuration not stated),6,15,27,-1.6,0.2,0,8,4,4,-11
Cc1cccc(-c2ncc(CN3CCCC(CO)(Cc4cccc(Cl)c4)C3)cn2)c1 (configuration not stated),-17,30,15,-1.2,0.0,-2,-24,-5,-10,-10
CCOC(=O)c1ccc(NC(=O)CC2SCCNC2=O)cc1 (configuration not stated),·,-4,·,0.8,-0.9,-2,·,4,1,-10
Cc1ccccc1NC(=O)CSCC(=O)Nc1ccccc1C,7,-10,-1.2,-3.5,0.0,-8,4,-6,-22,1
CCCNC(=O)c1onc(CSc2ccc(Cl)cc2)c1C(=O)NCCC(C)C,-1,33,-2.5,0.1,0.0,-11,3,5,4,-2
CCN(CC)CCN1C(=O)C(=O)/C(=C(/O)c2ccc(OC(C)C)cc2)C1c1cccs1 (configuration not stated),1,-6,3.0,4.2,0.5,2,3,-2,-11,2
CCn1c(C)cc(/C=C2\SC(=O)N(CC(=O)Nc3ccc(C)c(C)c3)C2=O)c1C,·,4,·,-3.3,-0.3,·,·,0,-1,5
Cc1ccc(S(=O)(=O)N2[C@@H](c3cccc(Cl)c3)C(C(=O)O)=CC[C@H]2c2ccc(Cl)cc2)cc1,12,·,0.3,0.0,-1.2,4,8,2,5,·
O=C(N/N=C/c1ccc(Cl)cc1Cl)Nc1ccccc1,·,8,·,-5.2,-0.9,-7,·,-4,3,117*
COc1ccc(CCNC2=NCC(C)S2)cc1 (configuration not stated),·,8,·,-1.9,3.0,-3,·,-5,-7,-14
CC(=O)N1CCN(c2nnc(-c3ccccc3)c3ccccc23)CC1,0,4,-1.4,-3.0,0.4,1,-8,-5,3,9
O=C(NC(=S)N(CCO)Cc1ccccc1)c1ccc(F)cc1Cl,-2,-9,4.9,-1.1,-5.3,-4,13,-35,-1,2
CCOC(=O)c1c(NC(=O)CSc2nc3cc(Cl)ccc3c(=O)n2Cc2ccco2)sc(C(=O)N(C)C)c1C,0,61*,-1.4,-0.8,0.3,-7,0,17,27,5
CCCCn1c(N)c(N(CCOC)C(=O)c2ccc(COc3ccccc3)o2)c(=O)[nH]c1=O,3,7,-0.6,3.8,0.3,-8,4,1,·,-5
O=C(Cc1ccccc1)Nc1ccc(S(=O)(=O)N2CCCC2)cc1,-4,-12,-0.6,·,·,·,-2,-6,·,-8
COc1ccc(CNC(=O)COC(=O)c2cc(C)nc3ccccc23)cc1,-3,·,6.0,1.4,-1.3,-5,-10,-1,-6,·
COc1cc(C(=O)NCCCc2ccccc2)cc(OC)c1OC,-5,1,-6.4,-0.5,0.8,2,-27,1,1,15
C/C(=N/NC(=O)CN1CCN(S(=O)(=O)c2ccc(C)cc2)CC1)c1cccc(O)c1,-3,-13,-2.7,-1.6,0.9,25,-10,7,-8,0
COc1ccc(C2CC(=O)C(C3NCCc4ccccc43)=C(O)C2n2cncn2)cc1 (configuration not stated),0,-2,-11,-0.4,0.2,2,18,4,-3,0
CN(C)c1ccc(NC(=O)/C=C/c2c(Cl)cccc2Cl)cc1,1,6,-5.3,-0.7,-0.1,27,-3,-2,6,1
CN1C(=O)CSc2ccc(NC(=O)N3CCc4ccccc43)cc21,-24,12,-6.1,0.6,1.5,1,-21,11,0,9
COc1cccc2sc(Nc3nnc(-c4ccccc4Cl)o3)nc12,5,40,-2.8,6.1,-4.8,86*,-6,7,·,0
COc1cc(/C=C/c2nc3ccccc3c(=O)[nH]2)cc(Br)c1O,2,-21,-0.7,0.3,-3.1,1,8,6,6,11

In a second layout: 13 of the compounds above.
The line under a structure holds: Ecoli rRNA inh, T cruzi repl, Ecoli rRNA inh RFP, LANA-H2B inh, A1 inh, ALR inh, Ecoli rRNA inh OD600, B2AR ag, Beta apoptosis, Calb FLC
CC(=O)N1CCN(c2nnc(-c3ccccc3)c3ccccc23)CC1
    0, 4, -1.4, -3.0, 0.4, 1, -8, -5, 3, 9
O=C(NC(=S)N(CCO)Cc1ccccc1)c1ccc(F)cc1Cl
    -2, -9, 4.9, -1.1, -5.3, -4, 13, -35, -1, 2
CCOC(=O)c1c(NC(=O)CSc2nc3cc(Cl)ccc3c(=O)n2Cc2ccco2)sc(C(=O)N(C)C)c1C
    0, 61*, -1.4, -0.8, 0.3, -7, 0, 17, 27, 5
CCCCn1c(N)c(N(CCOC)C(=O)c2ccc(COc3ccccc3)o2)c(=O)[nH]c1=O
    3, 7, -0.6, 3.8, 0.3, -8, 4, 1, ·, -5
O=C(Cc1ccccc1)Nc1ccc(S(=O)(=O)N2CCCC2)cc1
    -4, -12, -0.6, ·, ·, ·, -2, -6, ·, -8
COc1ccc(CNC(=O)COC(=O)c2cc(C)nc3ccccc23)cc1
    -3, ·, 6.0, 1.4, -1.3, -5, -10, -1, -6, ·
COc1cc(C(=O)NCCCc2ccccc2)cc(OC)c1OC
    -5, 1, -6.4, -0.5, 0.8, 2, -27, 1, 1, 15
C/C(=N/NC(=O)CN1CCN(S(=O)(=O)c2ccc(C)cc2)CC1)c1cccc(O)c1
    -3, -13, -2.7, -1.6, 0.9, 25, -10, 7, -8, 0
COc1ccc(C2CC(=O)C(C3NCCc4ccccc43)=C(O)C2n2cncn2)cc1 (configuration not stated)
    0, -2, -11, -0.4, 0.2, 2, 18, 4, -3, 0
CN(C)c1ccc(NC(=O)/C=C/c2c(Cl)cccc2Cl)cc1
    1, 6, -5.3, -0.7, -0.1, 27, -3, -2, 6, 1
CN1C(=O)CSc2ccc(NC(=O)N3CCc4ccccc43)cc21
    -24, 12, -6.1, 0.6, 1.5, 1, -21, 11, 0, 9
COc1cccc2sc(Nc3nnc(-c4ccccc4Cl)o3)nc12
    5, 40, -2.8, 6.1, -4.8, 86*, -6, 7, ·, 0
COc1cc(/C=C/c2nc3ccccc3c(=O)[nH]2)cc(Br)c1O
    2, -21, -0.7, 0.3, -3.1, 1, 8, 6, 6, 11

Records listed so far shown as hits in ALR inh.
| Structure | Ecoli rRNA inh | Ecoli rRNA inh RFP | LANA-H2B inh | ALR inh | Ecoli rRNA inh OD600 | B2AR ag |
| --- | --- | --- | --- | --- | --- | --- |
| COc1cccc2sc(Nc3nnc(-c4ccccc4Cl)o3)nc12 | 5 | -2.8 | 6.1 | 86* | -6 | 7 |

(next part)
molecule,Ecoli rRNA inh,T cruzi repl,Ecoli rRNA inh RFP,LANA-H2B inh,A1 inh,ALR inh,Ecoli rRNA inh OD600,B2AR ag,Beta apoptosis,Calb FLC
COc1ccc(C(=O)NCc2nnc(SCC(=O)Nc3cc(Cl)ccc3OC)o2)cc1,-3,-28,3.0,7.3,0.4,-10,5,-16,-10,-4
Cc1c(NC(=O)c2ccccc2)cccc1[N+](=O)[O-],·,-8,·,-0.4,?,-4,·,-2,0,-8
O=C(O)CCS(=O)(=O)Cc1ccccc1F,·,-18,·,0.3,-0.4,-6,·,3,4,3
COc1cc(OC)cc(C(=O)N(CN2CCCC2=O)c2ccccc2OC)c1,·,-9,·,-2.4,0.3,-4,·,-6,-1,6
O=c1c([N+](=O)[O-])c(O)c2ccccc2n1Cc1ccccc1,-5,-7,0.8,8.2,?,99*,-8,17,-16,16
CCCc1cc(=O)[nH]c(SCC(=O)Nc2nonc2N)n1,·,-6,·,2.5,0.0,15,·,3,-3,3
COCCSc1ccccc1C(=O)NCc1ccc(S(N)(=O)=O)cc1,16,-8,-2.9,-27,1.2,-1,23,-5,2,-17
O=C(CN1C(=O)NC2(CCCCC2)C1=O)Nc1ccc(F)cc1,3,11,-1.4,11,0.7,-6,7,-2,-2,-5
CC(=O)Nc1ccc(OCC(O)Cn2ccnc2)cc1 (configuration not stated),1,-24,-2.4,-2.2,1.2,-11,-1,5,3,?
CC(C)=CCSc1nnc(CCNC(=O)OC(C)(C)C)o1,·,8,·,0.3,0.9,-2,·,4,-5,-2
O=C(COC(=O)c1ccc(S(=O)(=O)Nc2ccccc2)cc1)NCC1CCCO1 (configuration not stated),6,13,2.7,0.1,1.3,-10,5,7,0,12
